Compound activity as filed in PubChem BioAssay.
YopH inh: inhibitors of Yersinia enterocolitica YopH tyrosine phosphatase; fluorescence Ex485/Em525; hit rate 0.16% among 140,000; inhibition, %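 (about 10 µM by stock and volumes)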;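 active = inhibition of 50% or more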;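 also: controls were vehicle for no effect and minimum signal wells for full effect; inactives centre near -20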
Arbovirus inh: blocks arbovirus infection | arbovirus infection cell-based antiviral screen | inhibition, % at 10 µM | hit rate 0.37% among 200,000;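 active = inhibition from about 30%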;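 also: bluetongue infection of BSR cells; cell survival read as ATP light after 72 h; 0% = infected wells without compound and 100% = uninfected wells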
RecA splice inh: blocks M. tuberculosis RecA intein splicing. hit rate 0.75% among 290,000. cell-free RecA intein splicing, fluorescence. inhibition, %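 (about 9 µM by stock and volumes)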. P9WHJ3; in the data active = inhibition above about 30%; inconclusive = no clear call, values can overlap the other calls;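 also: 0% = vehicle wells and 100% = reference inhibitor control wells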
Target sequence (P9WHJ3 whole entry, looked up, canonical isoform): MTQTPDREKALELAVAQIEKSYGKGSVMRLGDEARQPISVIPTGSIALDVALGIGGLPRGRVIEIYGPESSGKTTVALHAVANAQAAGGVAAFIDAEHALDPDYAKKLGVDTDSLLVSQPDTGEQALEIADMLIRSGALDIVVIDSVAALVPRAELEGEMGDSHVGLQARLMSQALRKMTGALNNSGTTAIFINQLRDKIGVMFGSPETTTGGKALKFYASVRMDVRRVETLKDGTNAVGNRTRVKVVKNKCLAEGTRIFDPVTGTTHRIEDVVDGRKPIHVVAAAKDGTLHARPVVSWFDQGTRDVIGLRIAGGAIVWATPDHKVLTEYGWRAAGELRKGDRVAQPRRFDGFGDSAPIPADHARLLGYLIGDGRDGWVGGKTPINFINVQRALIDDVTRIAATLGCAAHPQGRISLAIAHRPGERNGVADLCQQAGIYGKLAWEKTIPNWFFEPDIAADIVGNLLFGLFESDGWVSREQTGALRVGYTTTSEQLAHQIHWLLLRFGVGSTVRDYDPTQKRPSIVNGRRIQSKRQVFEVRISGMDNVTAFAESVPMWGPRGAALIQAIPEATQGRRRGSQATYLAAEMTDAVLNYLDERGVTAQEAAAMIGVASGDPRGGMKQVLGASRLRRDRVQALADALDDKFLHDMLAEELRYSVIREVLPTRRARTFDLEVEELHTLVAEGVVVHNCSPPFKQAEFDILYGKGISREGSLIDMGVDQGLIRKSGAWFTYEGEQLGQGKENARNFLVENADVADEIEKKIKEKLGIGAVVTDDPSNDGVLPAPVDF
Mtb betalactam: beta-lactam sensitization of Mtb H37Rv. AID 434955. hit rate 0.27% among 330,000. M. tuberculosis H37Rv growth with meropenem, percent inhibition; hits of this screen are not shown here. inhibition, % at 25 µM;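 active = about 74% or more and at least 40 points above the plate without the antibiotic, then above 30% in a dose series; inconclusive = first-round hits that could not be retested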;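 also: growth measured after seven days incubation then overnight dye step; 0% = bacteria only wells and 100% = bacteria with antibiotic; twin plates without the antibiotic show which effects depend on it; some results filed as inactive read as strong as hits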
Mtb growth: M. tuberculosis H37Rv growth inhibitors, H37Rv strain (AID 1626). M. tuberculosis H37Rv growth inhibition; higher % means a stronger effect. inhibition, % at 10 µM; hits with a dose series show IC50 in µM. hit rate 0.95% among 220,000;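 active = confirmed in a dose series; inconclusive = inhibition above 80% but not taken into the dose series; inactive = below 80% or under 30% at every dose of the series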;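 also: bacteria incubated seven days before Alamar blue readout; 0% = bacteria only wells and 100% = bacteria with antibiotic wells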
Arbovirus inh repeat: also measured in Arbovirus inh; calls as there; inhibition, %; measured here: 10K subset replicate screen; many hits read low in the repeat;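 first of two repeat runs on a subset; 0% = infected and 100% = uninfected wells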
Starred values were filed as active, the others as inactive; ? = inconclusive; nt = not tested or not shown. Some of the compounds tested, so the mix of outcomes need not match the whole.

SMILES | YopH inh | Arbovirus inh | RecA splice inh | Mtb betalactam | Mtb growth | others
N=C1/C(=C/c2ccc(Br)o2)C(=O)N=C2SC(CC(=O)N3CCCC3)=NN12 | nt | nt | -1.8 | 9 | nt
O=C(c1ccco1)c1nc2c(n1O)CCCCC2 | -8 | 1 | 0.6 | -4 | -1%
CN1C(C)(C)CC(=NOC(=O)c2ccccc2)CC1(C)C | -30 | 1 | -0.2 | -5 | 1%
COc1ccc(F)cc1S(=O)(=O)N1CCN(Cc2ccc3c(c2)OCO3)CC1 | -5 | -2 | -1.1 | -3 | 1%
Cc1sc2c(c1C)CN(Cc1ccncc1)CN2C(=O)c1ccco1 | 15 | 1 | -4.7 | 5 | 3%
COc1ccc(/C=N/N(C)C2=NS(=O)(=O)c3ccccc32)cc1OC | nt | nt | -5.2 | 16 | nt
CC(SCCc1ccccn1)C(=O)O (stereo unspecified) | -22 | 3 | -0.2 | 3 | -15%
CC(C)NC(=O)C(c1ccc(F)cc1)N(Cc1ccco1)C(=O)CCC(=O)Nc1ccccn1 (stereo unspecified) | nt | nt | 1.0 | 1 | nt
COc1ccc(S(=O)(=O)N2CCCCC2)cc1NC(=O)Cn1c(=O)cnc2ccccc21 | nt | nt | -0.9 | -3 | nt
ON1C(c2ccc(Cl)cc2Cl)N(O)[C@H]2CCCC[C@H]21 (stereo partly specified) | -28 | -8 | -11 | -3 | 3% | Arbovirus inh repeat=-3
O=C(NC(=S)NCC1CCCO1)c1ccccc1Br (stereo unspecified) | -26 | 1 | -2.3 | 4 | 1%
CC(C)(C)NS(=O)(=O)c1cc2c3c(c1)CCN3C(=O)CC2 | nt | nt | -6.5 | 2 | nt
Cc1onc(-c2ccccc2Cl)c1C(=O)N1CCN(c2cccc(Cl)c2)CC1 | -25 | -14 | -1.1 | -2 | 7% | Arbovirus inh repeat=-14
C=CCN(C(=O)c1csnn1)C(C(=O)NC1CCCCC1)c1ccccc1 (stereo unspecified) | nt | nt | 0.4 | 0 | nt
CCn1cc(C(=O)NCc2ccccc2OC)c(=O)c2ccc(C)nc21 | nt | nt | -0.3 | -10 | -10%
COC(=O)c1cc(=O)n(-c2ccc(C(F)(F)F)cc2)[nH]1 | nt | nt | -3.1 | -3 | -9%
Cc1ccc(NC(=O)C2CCN(S(=O)(=O)c3c(C)noc3/C=C/N(C)C)CC2)cc1 | nt | nt | -3.8 | -1 | nt
CCn1c(=O)c2cc(C(=O)NCC(OC)OC)sc2c2ccccc21 | nt | nt | 0.0 | -1 | nt
COc1ccc(S(=O)(=O)N2CCC(C(=O)N3CCN(c4ccccc4OC)CC3)CC2)cc1 | 24 | -10 | -0.1 | -11 | 6% | Arbovirus inh repeat=-3
CC(=O)N(C)c1nc(-c2ccc(Cl)cc2)cs1 | 9 | 0 | 0.0 | 1 | -1%
Cc1c(CN2CCC(n3nccc3NC(=O)CCc3ccccc3)CC2)cnn1C | nt | nt | 0.9 | 2 | nt
C=CCn1c(SCc2ccccc2)nc2c1c(=O)[nH]c(=O)n2C | nt | nt | 3.0 | -1 | nt
COc1ccc2[nH]c(=O)c(CN(C(=O)C3CCCO3)c3ccc(C)cc3)cc2c1 (stereo unspecified) | -45 | 4 | 1.4 | 1 | 6%
CCOC(=O)/C(=N\Nc1cc(Cl)ccc1Cl)N1CC(C)OC(C)C1 (stereo unspecified) | nt | nt | -0.4 | 2 | -3%
c1ccc(Oc2cccc(NC3=NCCC3)c2)cc1 | -36 | -1 | -1.4 | -11 | 7%
COc1ccc(NC(=O)c2cc(S(=O)(=O)N3CCOCC3)ccc2N2CCOCC2)cc1 | nt | nt | -5.3 | -15 | nt
CC(C)(C)c1ccccc1NC(=S)NC1CCCCC1 | nt | 6 | 0.7 | -10 | -2%
CCc1ccc(N2C(=O)C3C(C2=O)N2CCCN2C3c2ccccc2)cc1 (stereo unspecified) | nt | nt | -0.6 | 2 | -7%
Cc1ccc(OCc2ccc(C(=O)NCC3CCCO3)cc2)cc1 (stereo unspecified) | nt | 3 | 0.5 | 0 | 6%
Cc1ccc(C(=O)OCC(=O)Nc2ccc(N(C)C)cc2)cc1NC(=O)c1ccco1 | -16 | 1 | nt | -2 | 9%

Among those listed so far, these have fluorine:
SMILES | YopH inh | Arbovirus inh | RecA splice inh | Mtb betalactam | Mtb growth | others
COc1ccc(F)cc1S(=O)(=O)N1CCN(Cc2ccc3c(c2)OCO3)CC1 | -5 | -2 | -1.1 | -3 | 1%
CC(C)NC(=O)C(c1ccc(F)cc1)N(Cc1ccco1)C(=O)CCC(=O)Nc1ccccn1 (stereo unspecified) | nt | nt | 1.0 | 1 | nt
COC(=O)c1cc(=O)n(-c2ccc(C(F)(F)F)cc2)[nH]1 | nt | nt | -3.1 | -3 | -9%

(cont.)
SMILES | YopH inh | Arbovirus inh | RecA splice inh | Mtb betalactam | Mtb growth | others
O=C(NCCCN1CCCC1=O)c1cccc(S(=O)(=O)N2CCN(c3ccccc3)CC2)c1 | nt | nt | -0.9 | -13 | nt
CC(=O)Nc1ccc(NC(=O)C(C)Sc2n[nH]c(-c3ccc(C)cc3)n2)cc1 (stereo unspecified) | nt | nt | 0.5 | -4 | nt
COc1ccc(CCn2c(=N)c(C(=O)NCC3CCCO3)cc3c(=O)n4cccc(C)c4nc32)cc1OC (stereo unspecified) | nt | nt | -15 | 10 | nt
CCOC(=O)c1cc(C)sc1/N=C/C1C(=O)NC(=S)NC1=O | nt | -5 | -3.1 | -2 | 1%
CCn1cnc2sc(C(=O)O)c(C)c2c1=O | -26 | 11 | 3.4 | -9 | -6%
COc1ccc(S(=O)(=O)N(CC(=O)NCCSc2ccccn2)c2ccccc2)cc1 | nt | nt | -1.0 | -7 | nt
CCN(c1ccc(NC(=O)COC(=O)CCc2cc(OC)c(OC)c(OC)c2)cc1)C(C)C | nt | 4 | -1.3 | nt | -2%
COc1ccccc1CNC(=O)C(NC(=O)c1ccc(C)cc1)C(C)C (stereo unspecified) | nt | -2 | nt | -1 | 0%
COCCN(C(=O)CCC(=O)Nc1cc(C)on1)C(C(=O)NC(C)(C)C)c1ccccc1Cl (stereo unspecified) | nt | nt | -1.2 | 0 | nt
O=P(Nc1cccc(F)c1)(Oc1ccccc1F)Oc1ccccc1F | nt | nt | 18 | 0 | 11%
Cc1ccc(NC(=O)CSc2nnc(Cc3csc(C)n3)o2)c(C)c1 | nt | nt | -4.0 | -9 | nt
NC(=O)c1cc2ccccc2o/c1=N/NC(=O)c1cccc(Cl)c1 | nt | nt | 0.0 | -1 | nt
COc1cc(C)nc(N2CCCC(C(=O)Nc3cccc(Cl)c3Cl)C2)n1 (stereo unspecified) | 13 | -5 | 2.6 | 3 | -7%
CCOc1ccc(OCCC(=O)N(CCC(C)C)c2c(N)n(Cc3ccccc3)c(=O)[nH]c2=O)cc1 | nt | nt | 0.2 | 17 | nt
C=CCc1c(C)c(C#N)c2nc3ccccc3n2c1N1CCCCC1 | nt | nt | -16 | 0 | -4%
Cc1cc(C)cc(NC(=O)NCc2c(-c3ccccc3)noc2C)c1 | nt | nt | -0.4 | 0 | 1%
Cc1cc2oc(=O)c(CC(=O)NCCCO)c(C)c2c2occ(C(C)(C)C)c12 | nt | nt | 2.7 | 18 | nt
O=C(Nc1ccccc1)N(CCc1nc2ccccc2[nH]1)C1CCCC1 | 2 | 8 | -0.5 | -8 | 7%
COc1ccc(-c2noc(N3CCC(C(=O)Nc4ccc(OC)c(OC)c4)CC3)n2)cc1 | nt | nt | -5.7 | 5 | nt
CCN(CC(=O)Nc1ccc(NC(C)=O)cc1)C(=O)c1cc(CN2C(=O)c3ccccc3C2=O)ccc1OC | nt | nt | 2.5 | -6 | nt
Cc1cc(-c2nc3ncccc3o2)ccc1N | -18 | -9 | -5.8 | -10 | -12%
COc1ccc(CCN(Cc2cc3cccc(C)c3n3nnnc23)C(=O)c2ccncc2)cc1OC | nt | 2 | 0.7 | -2 | -4%
O=C(Nc1ccc2c(c1)C(=O)N(CC1CCCO1)C2=O)c1ccccc1Br (stereo unspecified) | -7 | 1 | -0.7 | -1 | -17%
CC1CC(C)CN(C(=O)CCNS(=O)(=O)c2ccc3c(c2)CCC(=O)N3)C1 (stereo unspecified) | -6 | 2 | 1.2 | 5 | -3%
CCCn1nc(C(=O)Nc2ccc(S(=O)(=O)Nc3ncccn3)cc2)c2ccccc2c1=O | nt | nt | 3.4 | 23 | -4%
NS(=O)(=O)c1ccc(CCNC(=O)c2ccc([N+](=O)[O-])cc2[N+](=O)[O-])cc1 | nt | 5 | -9.5 | 2 | -2%
Cn1cccc1-c1cc(C(=O)O)[nH]n1 | nt | 2 | -1.9 | -2 | -6%
O=P(NS(=O)(=O)c1ccc(Br)cc1)(Oc1ccccc1)Oc1ccccc1 | -23 | 11 | 4.5 | -3 | -5%
COc1ccc(NS(=O)(=O)/C=C/c2ccc(OC)c(OC)c2)cc1 | nt | 4 | -5.2 | -1 | -1%
CC12CCC(C(=O)N(NC(=O)c3ccccc3O)C1=O)C2(C)C (stereo unspecified) | -41 | -8 | 1.6 | 8 | -1%
CCC(C(=O)N1CCOCC1)n1nc(C)c2c(C)n(-c3ccccc3)nc2c1=O (stereo unspecified) | nt | nt | 7.6 | 3 | nt
O=C(NCCSc1ccc(Br)cc1)c1ccc2nc[nH]c2c1 | nt | nt | 4.2 | -3 | nt
COc1ccc(NC(=O)c2onc(C)c2Cl)cc1OC | -27 | -6 | 0.8 | -6 | -3%
Cc1cc(C)cc(C(=O)Nc2ccc(N3CCN(S(C)(=O)=O)CC3)cc2)c1 | nt | -11 | -1.6 | 0 | 1%
CC(=O)Nc1ccc(S(=O)(=O)N(C)CC(=O)OCC(=O)N2CCCCCC2)cc1 | nt | nt | -3.8 | 3 | nt
COc1ccc2c(c1)cc(C(=O)O)n2C | -40 | 4 | nt | -3 | 3%
O=C(CN1CCN(c2ccc(F)cc2)CC1)OCc1ccccc1 | -26 | 0 | -1.7 | 25 | -8%
Cc1ccc(OCCCN2CCOCC2)cc1 | nt | nt | -2.0 | -6 | nt
Cc1cccc(NC(=O)C2CCCN2C(=O)OCC(C)C)c1C (stereo unspecified) | 0 | -2 | 0.3 | -4 | 5%
CCOc1ccc(NC(=O)N2CCC(c3nc4ccccc4o3)CC2)cc1 | nt | 6 | 1.4 | 8 | 39%
COC(=O)C(C)Oc1cc(C)cc2oc(=O)c3c(c12)CCCC3 (stereo unspecified) | -35 | 6 | 1.6 | -6 | 1%
On1nnc2ccc(C(F)(F)F)cc21 | nt | 0 | -2.7 | 3 | 1%
COc1ccc(/C=C/C(=O)NCC(=O)N/N=C/c2cc(Br)ccc2OCc2ccccc2)cc1 | -12 | -16 | 1.5 | 91 | 12%
CCN(CC)S(=O)(=O)c1ccc(Cl)c(C(=O)Nc2nnc(C)s2)c1 | -23 | 19 | -2.4 | -1 | -6% | Arbovirus inh repeat=2
CC(=O)N1N=C(c2cccs2)CC1c1ccc(Br)cc1 (stereo unspecified) | nt | nt | 13 | 4 | nt
O=C(c1cccc(OC2CCN(Cc3cccc(OCCO)c3)CC2)c1)N1CCCC1 | nt | nt | 3.0 | -10 | nt
Cc1cc(-c2nnc(CCC(=O)NCC(C)c3ccccc3)o2)no1 (stereo unspecified) | nt | nt | -0.6 | 10 | nt
Cc1ccc(NC(=O)CSc2nnc(CNC(=O)c3ccco3)n2C)c(C)c1 | nt | nt | -0.9 | 2 | nt
O=C(Nc1ccccn1)C1CCN(c2ncnc3c2nc2n3CCCCC2)CC1 | nt | nt | 0.1 | 9 | nt
O=C(c1cc(N2C(=O)C3C4CCC(C4)C3C2=O)ccc1Cl)N1CCN(c2ccccc2F)CC1 (stereo unspecified) | -18 | -3 | -6.8 | -2 | 8%
Next results follow:
SMILES | YopH inh | Arbovirus inh | RecA splice inh | Mtb betalactam | Mtb growth | others
Cc1cccc(Nc2n[nH]c(C)c2[N+](=O)[O-])c1 | -15 | 4 | 1.0 | 10 | 12%
O=C(COC(=O)/C(=C/c1cccs1)c1cccs1)NCc1ccccc1Cl | 0 | -1 | 15 | 6 | 2%
CCOc1cc(CNCCc2ccc(S(N)(=O)=O)cc2)ccc1OCC(=O)NC1CCCCC1 | -20 | -19 | -2.3 | 8 | 1%
O=C(NCCCN1CCCC1=O)c1ccccc1NS(=O)(=O)c1ccc(F)cc1 | -37 | 6 | nt | 8 | -6% | Arbovirus inh repeat=-2
O=C(NCCCn1ccnc1)c1ccc(Cl)c(Cl)c1 | nt | nt | -0.4 | -2 | nt
O=C(Nc1nnc(COc2ccc(Cl)cc2)s1)c1ccc([N+](=O)[O-])cc1 | -50 | -3 | -0.4 | -4 | -6%
O=C(Cc1c(F)cccc1Cl)OCN1C(=O)c2ccccc2C1=O | nt | nt | -1.1 | -6 | nt
O=C(OCn1nnc2ccccc2c1=O)c1cccs1 | -27 | 1 | -1.8 | 100 | ? | Arbovirus inh repeat=3
